From PubChem
Yeast UUG start – alters start codon recognition fidelity in yeast; S. cerevisiae UUG-firefly luciferase reporter, luminescence/redox ratio; activity score, % at 18.7 µM; hit rate 0.13% among 350,000;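 active means replicate mean at a twofold rise or more, about +100% in these data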;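 further: firefly luciferase made from a UUG start codon reports start codon fidelity; reporter light over untreated wells divided by growth signal over untreated wells; some hits fall short of that in this replicate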
Env fusion inh – blocks HIV Env-driven cell-cell fusion. HeLa-JRFL Env/CEM21 cell fusion, luciferase. inhibition, % at 12.3 µM. hit rate 1.1% among 360,000;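 active means mean replicate inhibition score of at least 50 and every replicate individually at or above 50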;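 further: 0% = plate neutral controls and 100% = maraviroc near 300 nM; one replicate is shown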
eIF4H FP inh – inhibitors of RNA binding by human eIF4H; hit rate 0.94% among 290,000; eIF4H fluorescence polarization binding assay; inhibition, % at 35 µM;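 active means 50% or more with normal probe brightness, or confirmed in later tests; about a fifth of its hits are not listed in these tables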;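 further: calls also rest on retests at 20 µM and on dose response follow-up; 0% = protein and probe with vehicle and 100% = probe without protein; strong numbers were not always called active; many hits fall short of the cut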
PABP polyA inh – PABP-poly(A) binding inhibition; PABP-poly(A) RNA binding, fluorescence polarization; inhibition, % at 35 µM; hit rate 1% among 290,000; AID 2014;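 active means 50% or more with normal probe brightness, or confirmed in later tests; about a fifth of its hits are not listed in these tables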;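 further: calls also rest on retests at 20 µM and on dose response follow-up; controls were probe without protein and protein plus probe with vehicle; some compounds called inactive have numbers as strong as hits; many hits fall short of the cut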
Target sequence (P11940 whole entry, looked up): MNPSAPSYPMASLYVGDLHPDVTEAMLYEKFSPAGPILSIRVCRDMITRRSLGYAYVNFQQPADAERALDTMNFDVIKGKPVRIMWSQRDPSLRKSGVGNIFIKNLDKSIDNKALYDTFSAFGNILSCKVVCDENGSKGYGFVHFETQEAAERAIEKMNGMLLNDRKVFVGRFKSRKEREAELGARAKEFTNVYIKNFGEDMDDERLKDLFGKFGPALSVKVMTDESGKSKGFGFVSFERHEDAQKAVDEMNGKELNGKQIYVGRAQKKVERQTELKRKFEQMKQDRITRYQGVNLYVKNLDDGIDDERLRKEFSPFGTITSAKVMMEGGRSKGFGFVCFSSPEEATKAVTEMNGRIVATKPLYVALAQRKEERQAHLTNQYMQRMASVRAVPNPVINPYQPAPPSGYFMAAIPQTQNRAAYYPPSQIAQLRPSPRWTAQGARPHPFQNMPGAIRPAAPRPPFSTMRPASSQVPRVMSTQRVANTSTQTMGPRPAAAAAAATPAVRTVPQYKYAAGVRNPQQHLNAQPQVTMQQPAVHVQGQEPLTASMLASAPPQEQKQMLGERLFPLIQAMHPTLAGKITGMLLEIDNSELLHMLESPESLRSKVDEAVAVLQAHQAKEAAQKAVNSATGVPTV
Rce1 inhib – yeast Ras-converting enzyme inhibition. Q03530. calls only. hit rate 0.27% among 290,000. yeast membranes, quenched prenylated peptide cleavage fluorescence;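 active means fall in fluorescence gain of 50% or more versus controls, with final raw signal at or below 3038400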;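 further: plate controls were neutral control wells for no effect and wells lacking membranes for full effect; tested at 10 µM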
Target sequence (Q03530 whole entry, looked up): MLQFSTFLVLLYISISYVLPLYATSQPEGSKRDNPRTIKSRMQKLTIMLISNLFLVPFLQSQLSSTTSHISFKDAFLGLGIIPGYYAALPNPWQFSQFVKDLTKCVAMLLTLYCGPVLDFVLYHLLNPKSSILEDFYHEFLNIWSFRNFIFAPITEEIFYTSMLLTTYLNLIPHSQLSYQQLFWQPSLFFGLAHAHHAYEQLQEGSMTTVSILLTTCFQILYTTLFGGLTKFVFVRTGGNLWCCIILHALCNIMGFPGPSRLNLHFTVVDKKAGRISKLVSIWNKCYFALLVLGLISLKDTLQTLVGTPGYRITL
MT1-MMP act inh – inhibitors of human MT1-MMP activation | GFP/RFP ratio change, % at 20 µM | HT1080 RFP-PRO-GFP cells, GFP/RFP ratio fluorescence, overnight; percent of plate control window, DMSO zero | hit rate 0.061% among 360,000;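 active means GFP/RFP ratio change of at least 30% with cell ATP level not reduced by more than half and red fluorescence within 50% of control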; further: strong numbers were not always called active
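Test system: HT1080 cells expressing an RFP-PRO-GFP fluorescent reporter construct / Compound dosing: single-point 20 µM compound, 1% DMSO / Schedule: cells overnight before dosing, compound overnight, 37 °C, 5% CO2 / Evaluation: GFP/RFP fluorescence ratio / Control set: DMSO and RFP-L50D-GFP cell wells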
CSC inhib – cancer stem cell inhibition; hit rate 1.1% among 300,000; AID 2717; cancer stem cell-like cells viability, luminescence; inhibition, % at 7.5 µM;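 active means mean at 75% or more and at least half the replicates too; tested in HMLE shEcad cells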;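 further: 0% = median of negative and 100% = median of positive control wells; the first replicate is given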
MT1-MMP act inh RFP – also measured in MT1-MMP act inh; calls as there; RFP signal change, %; measured here: RFP expression control read;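 0 = vehicle wells; hits needed this value within 50% of zero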
* = called active by the depositor; i = inactive; . = not tested or not shown; + = active, no number; & = joins results of further samples; [ ] = dose if it differs, or a comment. These rows are one share of the data, so the mix of outcomes need not match the whole.

Values run as follows: Yeast UUG start	Env fusion inh	eIF4H FP inh	PABP polyA inh	Rce1 inhib	MT1-MMP act inh	MT1-MMP act inh RFP	CSC inhib
> Cc1csc(Sc2ccc([N+](=O)[O-])cc2C(=O)OCC(=O)NC2CCCC(C)C2C)n1 (stereo unspecified)
  -21.9	-42.4	7.9	1.0	i	-2.7	-0.9	-5.1
> CCC(C)c1ccc(S(=O)(=O)N2CCN(c3ccccn3)CC2)cc1 (stereo unspecified)
  -5.5	-16.5	-10.3	7.3	i	13.4	-9.9	-15.7
> CCOc1cc(N2CCOCC2)c(OCC)cc1NC(=O)Cn1nc(C)c([N+](=O)[O-])c1C
  .	-12.9	.	.	i	-1.2	0.2	-1.0
> C=CCn1c(SCCCCCC)nc(O)cc1=O
  -13.2	.	4.1	7.5	.	-1.8	6.4	-1.1
> COc1ccc(-c2nsc(SCC(=O)Nc3ccc4c(c3)OCO4)n2)cc1
  .	-5.8	4.7	-3.4	i	2.2	0.5	8.6
> Cc1cccc(N2CCN(C3CCCCC3NS(=O)(=O)c3ccccc3)CC2C)c1 (stereo unspecified)
  -5.9	.	4.3	-2.3	i	-4.6	-13.2	29.4
> O=C(O)CCCN1C(=O)c2ccccc2Sc2ncccc21
  0.0	-5.9	0.8	16.4	i	2.5	3.8	0.3
> CCCCN(C)C(=O)c1coc(=O)c2ccccc12
  -12.3	-28.8	-5.7	-2.0	i	-1.9	0.1	-15.1
> Cc1cc(C)c(CN2CCN(C(=O)CC[C@H]3O[C@@H](n4cnc5c(NC(=O)c6ccccc6)ncnc54)[C@H](O)[C@@H]3O)CC2)c(C)c1
  -8.9	-27.9	.	.	.	0.1	-1.1	.
> COc1cccc(OC)c1OCCCN1CCC(Cc2ccccc2)CC1
  -16.5	5.8	-5.4	-11.8	i	2.2	4.0	30.9
> CC(C)c1nnc(SCC(=O)Nc2ccc3c(c2)OCCO3)n1C
  -10.1	-4.2	-5.9	-7.0	i	5.2	12.1	6.5
> CC(C)Cn1c(-c2ccco2)n[nH]c1=S
  -13.2	-36.5	-1.6	-4.0	i	2.4	1.7	.
> COc1ccc(NC(=O)c2cc3c(COC(C)=O)cnc(C)c3oc2=Nc2cccc(C(=O)O)c2)c(OC)c1
  10.5	.	35.3	5.7	i	3.6	-0.8	-8.6
> COc1ccccc1N1CCN(c2ccc([N+](=O)[O-])cn2)CC1
  -17.9	0.5	-11.3	-5.5	i	8.5	-1.0	-5.2
> O=C1C2ON(c3ccccc3)C(c3ccncc3)C2C(=O)N1c1ccc(Br)cc1 (stereo unspecified)
  0.8	-7.7	0.7	-1.1	i	-0.7	2.1	-0.7
> O=S1(=O)CCN2C=C(Br)C=C(Br)C2=N1
  -15.9	.	0.7	-1.3	i	2.0	-0.1	0.2
> COc1cccc(NC(=O)c2cc3ccccc3cc2OC)c1
  -21.7	-79.8	-4.7	12.4	i	0.5	0.9	8.9
> CC(C)CC(COCc1cccc(Cl)c1)N1CCN(C(=O)c2cccc(C(F)(F)F)c2)CCC1=O (stereo unspecified)
  -35.6	76.4*	11.4	1.6	i	-0.9	-5.4	-0.6
> O=S(=O)(NC1CCCCC1N1CCN(c2cccc(Cl)c2)CC1)c1ccccc1 (stereo unspecified)
  0.8	.	-10.7	-7.0	i	-5.3	-7.4	-7.0
> COc1cc2c(cc1OC)C(c1ccncc1)CC(=O)N2 (stereo unspecified)
  .	.	5.3	-1.2	i	0.6	9.8	-1.6

Quoted at random: six compounds from above
Values run as follows: Yeast UUG start	Env fusion inh	eIF4H FP inh	PABP polyA inh	Rce1 inhib	MT1-MMP act inh	MT1-MMP act inh RFP	CSC inhib
> Cc1cccc(N2CCN(C3CCCCC3NS(=O)(=O)c3ccccc3)CC2C)c1 (stereo unspecified)
  -5.9	.	4.3	-2.3	i	-4.6	-13.2	29.4
> CCC(C)c1ccc(S(=O)(=O)N2CCN(c3ccccn3)CC2)cc1 (stereo unspecified)
  -5.5	-16.5	-10.3	7.3	i	13.4	-9.9	-15.7
> CC(C)c1nnc(SCC(=O)Nc2ccc3c(c2)OCCO3)n1C
  -10.1	-4.2	-5.9	-7.0	i	5.2	12.1	6.5
> CCCCN(C)C(=O)c1coc(=O)c2ccccc12
  -12.3	-28.8	-5.7	-2.0	i	-1.9	0.1	-15.1
> C=CCn1c(SCCCCCC)nc(O)cc1=O
  -13.2	.	4.1	7.5	.	-1.8	6.4	-1.1
> CC(C)CC(COCc1cccc(Cl)c1)N1CCN(C(=O)c2cccc(C(F)(F)F)c2)CCC1=O (stereo unspecified)
  -35.6	76.4*	11.4	1.6	i	-0.9	-5.4	-0.6

Following part
Values run as follows: Yeast UUG start	Env fusion inh	eIF4H FP inh	PABP polyA inh	Rce1 inhib	MT1-MMP act inh	MT1-MMP act inh RFP	CSC inhib
> CC(=O)Nc1ccc(S(=O)(=O)NCCC(=O)OCC(=O)NC(C)c2ccc(Cl)cc2)cc1 (stereo unspecified)
  -5.5	3.7	.	.	.	-1.4	0.4	.
> O=C(CN1CCCCCC1)N1c2ccccc2Sc2ccccc21
  .	-1.0	-6.2	-5.8	i	0.5	1.7	5.2
> O=S(=O)(/C=C/c1ccccc1)N1CCN(c2ccc(F)cc2)CC1
  -8.0	11.5	-11.3	2.2	i	0.9	0.6	0.5
> FC(F)(F)c1nc2cc3nc4ccccc4[nH]c3cc2n1
  .	-15.9	19.3	30.1	i	-13.7	19.0	11.6
> COc1ccc(C2=CC(=O)C[C@H](c3ccc(Cl)cc3)C2)cc1
  -7.4	5.5	.	.	.	7.7	3.8	59.7
> Cc1cccc(NC(=O)c2ccc(N3CCOCC3)c([N+](=O)[O-])c2)n1
  -15.2	-18.2	-8.4	-4.2	i	1.5	-2.7	-5.4
> CCOc1ccc(C(c2c(C)[nH][nH]c2=O)c2c(C)[nH][nH]c2=O)cc1OCC
  -29.8	20.6	-8.6	17.5	i	-1.1	-3.4	-7.6
> O=C1N=C(N2CCOCC2)S/C1=C/c1ccc(-c2ccc(F)cc2)o1
  -12.7	-8.0	-4.0	3.9	i	-11.9	-7.3	-21.6
> Cc1ccccc1S(=O)(=O)NCC[C@@H]1CC[C@@H](NC(=O)C2CCCC2)[C@@H](CO)O1
  24.4	6.0[16.7 µM]	.	.	.	1.0	3.0	.
> CC1CCN(C(=O)CSc2nnc3c(n2)[nH]c2ccccc23)CC1
  -17.5	28.4	-6.4	1.1	i	-2.8	-22.0	6.0
> COCC1CCN(C(=O)C2CCC(=O)N(C3CCCC3)C2)CC1 (stereo unspecified)
  -15.4	-4.2	-9.8	3.5	i	-2.4	0.7	1.9
> Cc1cc(C)c2nc(-c3ccco3)cc(C(=O)O)c2c1
  .	-19.9	102.8*	91.2*	+	-5.3	2.2	.
> COc1ccc(C(CNC(=O)c2oc3cc(C)c(Cl)cc3c2C)N2CCCCC2)cc1 (stereo unspecified)
  -17.1	.	.	.	i	1.3	-2.0	10.9
> Cc1ccc(NC(/C=C/N(C)C)=C/C(=O)C(F)(F)F)c(C)c1
  -8.0	22.7	5.7	2.6	i	-0.3	-3.5	-0.8
> Cc1noc(NC(=O)c2ccccc2C(F)(F)F)c1C#N
  .	-26.4	-2.4	-6.9	i	-1.1	-2.6	-7.8
> CCCNC(=O)C(Cc1ccc(F)cc1)NC(=O)c1ccc(C#N)cc1 (stereo unspecified)
  -22.9	-17.2	.	.	.	-2.6	1.0	-14.7
> COc1ccc(NC(=O)N(C)C[C@@H]2Oc3ncc(Br)cc3C(=O)N([C@@H](C)CO)C[C@@H]2C)cc1
  -0.2&-0.5	-21.1	.	.	.	2.1	4.0	.
> CCCCOP(=O)(OCCCC)C(O)c1ccc(F)cc1 (stereo unspecified)
  .	9.5	-14.3	-7.6	i	-1.7	-1.8	6.1
> CC(C)CNC(=O)C1CC(=O)OC12CCCCC2 (stereo unspecified)
  -8.6	.	3.2	9.9	i	-0.8	-3.5	2.4
> Nc1ccc(Sc2ccccc2Cl)nc1
  .	4.9	.	.	i	-2.4	0.8	6.0
> Cc1ccc(-c2cc(C(F)F)n3ncc(C(=O)NCc4ccco4)c3n2)cc1
  -8.2	.	1.2	-7.4	.	-1.9	1.4	7.1
> COc1ccccc1CNC(=O)C1CC2Cn3c(nc4cc5ccccc5cc43)C2N1C (stereo unspecified)
  -7.8	12.3	.	.	i	4.6	-5.2	-11.1
> Cc1cc(/C=N/n2cnnc2)c(C)n1-c1ccc2c(c1)OCO2
  -18.3	37.9	-2.1	2.6	i	-1.7	-1.7	-6.4
> CCOC(=O)C1=C(C)N=C2SC(C(=O)OC)=CC(=O)N2C1c1cc(OC)c(OC)c(OC)c1 (stereo unspecified)
  .	-18.7	-0.5	-4.9	i	-0.8	0.8	1.5
> COc1ccc(CCN2C(=O)CC(N3CCN(S(=O)(=O)c4ccccc4)CC3)C2=O)cc1 (stereo unspecified)
  -1.9	.	8.5	3.8	i	-1.3	-2.4	-7.8
> Cc1nc(SC(C(=O)c2ccccc2)c2ccccc2)nc2ccccc12 (stereo unspecified)
  .	4.3	-1.0	-3.9	+	1.6	-5.5	-8.3
> CCN1CCN(CCC(=O)Nc2cc(OC)ccc2OC)CC1
  -16.5	-9.2	-8.9	-3.8	.	-4.1	-2.0	-9.8
> COC(=O)c1cc(NS(=O)(=O)c2ccc(OC)c(OC)c2)ccc1Cl
  -4.9	-5.8	-2.0	-5.0	i	-2.7	-9.3	-9.1
> COc1ccc(CC(=O)N/N=C(\C)c2cccnc2)cc1
  -14.9	.	3.8	2.0	i	-1.2	1.4	-18.2
> O=C(NCCCn1ccnc1)/C(=C\c1cccnc1)NC(=O)c1ccccc1F
  .	2.4	8.0	-3.4	i	0.5	0.2	-12.3
> CC(C)n1c(NCc2ccc(N(C)C)cc2)nc2ccccc21
  -0.5	.	-7.7	-7.8	i	3.3	3.5	-8.0
> CCn1c(CC(=O)Nc2cccc(Cl)c2Cl)nnc1SCCOc1ccc(OC)cc1
  .	.	-0.1	47.1	i	-10.2	-5.8	-3.3
> Cc1ccccc1CC(=O)c1ccc(O)c(C)c1O
  .	16.4	-14.1	-3.3	.	-0.1	2.2	23.9
> C=CCOc1ccc(/C=N/Nc2ccccn2)cc1OC
  -18.1	-121.2	6.5	3.3	i	7.5	-7.6	12.3
> CSc1nnc(-c2cccn(Cc3cccc(Cl)c3)c2=O)o1
  .	10.3	21.1	-16.4	i	2.5	1.7	-7.1
> OCC[C@H]1C[C@@H](O)[C@H](O)[C@@]2(OCCc3ccccc32)O1
  -20.9	-16.9	.	.	.	0.8	6.5	-5.8
> CCc1cccc(C)c1NC(=S)N(CCCN1CCOCC1)Cc1cccnc1
  -7.7	3.3	2.7	-6.9	i	1.2	4.1	-5.6
> CCOC(=O)c1c(NC(=O)COC(=O)/C=C/c2ccco2)sc2c1CC(C)(C)NC2(C)C
  -0.7	-52.6	.	.	i	0.6	-2.2	-2.8
> Cc1onc(-c2ccccc2Cl)c1C(=O)Nc1ccc(-n2nncc2C(C)(C)C)cc1
  -4.2	4.4	-5.6	-4.0	i	-8.7	-14.0	-13.9
> COc1cc(C(=O)NCC(c2cccs2)N2CCOCC2)ccc1OCc1ccc(Cl)cc1 (stereo unspecified)
  7.2	34.5	.	.	.	-5.0	-23.2	.
> OC(CN1CCCC(C(F)(F)F)C1)c1ccccc1 (stereo unspecified)
  -13.1	10.0	3.3	4.3	i	4.3	9.2	-12.2
> CSCCC(NC(=O)c1cccc(C)c1)C(=O)NCc1cccs1 (stereo unspecified)
  -0.8	.	.	.	.	-1.4	2.3	-20.3
> CCCN(CCC)C(=O)C1CC(=O)OC12CCCCC2 (stereo unspecified)
  .	6.1	-11.8	-17.1	i	1.2	2.3	18.4
